# YopH inh = YopH tyrosine phosphatase inhibitors, primary screen, biochemical, fluorescence Ex485/Em525 | inhibition, %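 (about 10 µM by stock and volumes)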 | AID 898, 2007 | 140,000 tested, 0.16% active;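 active means inhibition of 50% or more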;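 further: controls were vehicle for no effect and minimum signal wells for full effect; inactives centre near -20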
# Arbovirus inh = antivirals against arbovirus infection, primary screen, cell-based, full library, 10K replicate subset; arbovirus infection cell-based antiviral screen; 200,000 tested, 0.37% active; inhibition, % at 10 µM;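 active means inhibition from about 30%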;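 further: bluetongue infection of BSR cells; cell survival read as ATP light after 72 h; 0% = infected wells without compound and 100% = uninfected wells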
# RecA splice inh = Mtb RecA intein splicing inhibitors, primary screen, biochemical, fluorescence, HTS | cell-free RecA intein splicing | inhibition, %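 (about 9 µM by stock and volumes)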 | 290,000 tested, 0.75% active | AID 2221, 2009 | Protein RecA (Mycobacterium tuberculosis (strain ATCC 25618 / H37Rv)), P9WHJ3; in the data active means inhibition above about 30%; inconclusive means no clear call, values can overlap the other calls;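 further: 0% = vehicle wells and 100% = reference inhibitor control wells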
# Target sequence (P9WHJ3 whole entry, looked up, canonical isoform): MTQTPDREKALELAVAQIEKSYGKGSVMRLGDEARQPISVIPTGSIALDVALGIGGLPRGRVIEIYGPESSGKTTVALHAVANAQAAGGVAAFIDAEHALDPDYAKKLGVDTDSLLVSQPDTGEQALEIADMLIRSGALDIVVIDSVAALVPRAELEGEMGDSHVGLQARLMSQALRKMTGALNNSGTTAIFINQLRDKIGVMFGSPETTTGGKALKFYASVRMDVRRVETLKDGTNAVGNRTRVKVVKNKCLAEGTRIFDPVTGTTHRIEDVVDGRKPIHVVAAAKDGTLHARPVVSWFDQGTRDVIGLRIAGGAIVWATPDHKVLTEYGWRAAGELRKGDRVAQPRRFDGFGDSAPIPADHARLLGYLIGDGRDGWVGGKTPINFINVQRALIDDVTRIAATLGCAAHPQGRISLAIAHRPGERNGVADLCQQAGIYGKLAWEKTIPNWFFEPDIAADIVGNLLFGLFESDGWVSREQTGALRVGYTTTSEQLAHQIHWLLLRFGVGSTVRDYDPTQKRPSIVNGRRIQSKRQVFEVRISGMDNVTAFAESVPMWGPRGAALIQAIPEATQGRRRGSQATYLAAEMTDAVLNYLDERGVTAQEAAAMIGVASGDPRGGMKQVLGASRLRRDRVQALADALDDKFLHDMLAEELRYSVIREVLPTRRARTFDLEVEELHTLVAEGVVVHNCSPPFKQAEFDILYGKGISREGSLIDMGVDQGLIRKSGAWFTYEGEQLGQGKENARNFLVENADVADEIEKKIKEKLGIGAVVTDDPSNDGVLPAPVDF
# Mtb growth = M. tuberculosis H37Rv growth inhibitors, H37Rv strain (AID 1626); M. tuberculosis H37Rv growth inhibition; higher % means a stronger effect; inhibition, % at 10 µM; hits with a dose series show IC50 in µM; 220,000 tested, 0.95% active;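 active means confirmed in a dose series; inconclusive means inhibition above 80% but not taken into the dose series; inactive means below 80% or under 30% at every dose of the series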;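 further: bacteria incubated seven days before Alamar blue readout; 0% = bacteria only wells and 100% = bacteria with antibiotic wells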
# Mtb betalactam = beta-lactam sensitization of Mtb H37Rv, H37Rv | M. tuberculosis H37Rv growth with meropenem, percent inhibition; hits of this screen are not shown here | inhibition, % at 25 µM | 330,000 tested, 0.27% active;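 active means about 74% or more and at least 40 points above the plate without the antibiotic, then above 30% in a dose series; inconclusive means first-round hits that could not be retested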;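 further: growth measured after seven days incubation then overnight dye step; 0% = bacteria only wells and 100% = bacteria with antibiotic; twin plates without the antibiotic show which effects depend on it; some results filed as inactive read as strong as hits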
# Arbovirus inh repeat = further read-out of Arbovirus inh, marked with its call; inhibition, %; measured here: 10K subset replicate screen; many hits read low in the repeat;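 first of two repeat runs on a subset; 0% = infected and 100% = uninfected wells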
# Active calls of the source: *; ? = inconclusive; . = not tested or not shown.
SMILES,YopH inh,Arbovirus inh,RecA splice inh,Mtb growth,Mtb betalactam,others
N#C/C(=C\c1ccco1)C(=O)NCC1CCCO1 (centres undefined),-31.2,-2.8,2.8,0.5%,-3.4,
O=C(Nc1ccc(S(=O)(=O)Nc2nccs2)cc1)c1cc(-c2ccccc2Cl)nc2ccccc12,-26.0,0.6,6.6,.,76.5,
CCc1ccc(C(C)NC(=O)c2cc(C)oc2C)cc1 (centres undefined),-21.4,-0.3,11.4,-7.8%,-2.7,
COC(=O)C1=C2c3[nH]c4ccccc4c3CCN2C(=O)CC1,.,.,2.0,-4.5%,-10.0,
COc1ccc(OC)c(Nc2nc(=O)c3cccnc3s2)c1,.,1.1,.,5.3%,.,
CCOC(=O)c1[nH]c(C)c(C(=O)Nc2cc(Cl)ccc2C)c1C,-12.9,-11.9,-1.8,2.2%,11.7,
CCOC(=O)C(C)n1cnc2c(nnn2-c2ccc(C)cc2)c1=O (centres undefined),-38.8,4.0,-6.2,-2.1%,-7.3,
Cc1ccc(C)c(OC(C)C(=O)Nc2nccs2)c1 (centres undefined),.,.,1.5,.,1.2,
COC(=O)Cc1ccc(NC(=S)Nc2ccccn2)cc1,.,2.6,0.9,?,-5.5,
O=C(Nc1nc(-c2ccc(Cl)cc2Cl)cs1)c1ccc(OCC2CCCO2)cc1 (centres undefined),-30.1,68.1*,-2.1,16.7%,65.6,
O=C(N/N=C/c1ccc(Cl)cc1)c1ccc2c(c1)OCO2,.,.,-0.2,.,12.3,
Cc1ccc(CC(=O)Nc2cccc([N+](=O)[O-])c2)cc1,.,10.3,0.4,7.4%,-2.9,
COC(=O)N/N=C/c1cn(Cc2c(Cl)cccc2Cl)c2ccccc12,-3.5,4.2,2.4,13.6%,9.8,
CCOc1ccc(OCCC(=O)Nc2ccc(F)cc2C)cc1,.,4.9,-2.0,-6.9%,-4.8,
O=c1cc(CSc2ccc(Cl)cc2)nc(N2CCOCC2)[nH]1,-29.8,5.9,0.8,-13.7%,-2.3,
Cc1ccccc1C(=O)NC(=S)N(C)CCc1ccccn1,.,1.1,0.2,6.6%,37.7,
CC(C)n1c(CCCO)nc2ccccc21,-30.5,2.3,1.4,-8.4%,-7.7,Arbovirus inh repeat=-1.1
CN(Cc1ccc(Cl)cc1Cl)C(=O)CNC(=O)c1ccco1,.,.,0.9,.,?,
Cc1nn(C)c(C)c1/C=C/C(=O)c1ccc(Cl)cc1Cl,.,6.5,3.7,2.1%,1.1,
O=C(N/N=C/c1ccccn1)c1cc(C2CC2)nc2ccccc12,.,.,1.1,.,-4.2,

# Filtered by structure, the compounds so far containing a furan ring, fused or not
SMILES,YopH inh,Arbovirus inh,RecA splice inh,Mtb growth,Mtb betalactam,others
N#C/C(=C\c1ccco1)C(=O)NCC1CCCO1 (centres undefined),-31.2,-2.8,2.8,0.5%,-3.4,
CCc1ccc(C(C)NC(=O)c2cc(C)oc2C)cc1 (centres undefined),-21.4,-0.3,11.4,-7.8%,-2.7,
CN(Cc1ccc(Cl)cc1Cl)C(=O)CNC(=O)c1ccco1,.,.,0.9,.,?,

# A draw from above in order of number of heavy atoms, falling:
SMILES,YopH inh,Arbovirus inh,RecA splice inh,Mtb growth,Mtb betalactam,others
Cc1ccccc1C(=O)NC(=S)N(C)CCc1ccccn1,.,1.1,0.2,6.6%,37.7,
O=C(N/N=C/c1ccc(Cl)cc1)c1ccc2c(c1)OCO2,.,.,-0.2,.,12.3,
Cc1ccc(CC(=O)Nc2cccc([N+](=O)[O-])c2)cc1,.,10.3,0.4,7.4%,-2.9,

# Additional compounds follow:
SMILES,YopH inh,Arbovirus inh,RecA splice inh,Mtb growth,Mtb betalactam,others
O=C(NCC1c2ccccc2CCN1C(=O)CN1C(=O)c2ccccc2C1=O)C1CCCCC1 (centres undefined),-30.3,8.7,-3.1,-0.5%,-6.5,
CCOCCn1c(=O)c2c(nc3n2CCN3c2ccc(CC)cc2)n(C)c1=O,.,.,-2.0,.,8.8,
S=C(Nc1cccc(Cl)c1Cl)N1CCC2(CC1)OCCO2,.,1.0,-2.3,2.5%,0.5,
COc1ccc(Nc2ncccc2C(=O)Nc2ccccc2)cc1,-25.8,-10.6,7.6,12.9%,49.4,
CC1CCCCN1C(=O)N[C@@H](Cc1ccccc1)C(=O)O (some centres undefined),-49.1,1.3,-1.2,-3.2%,-6.8,
Cc1noc(C)c1COC(=O)c1ccccc1Oc1ccccc1,20.5,15.9,5.8,2.0%,-6.0,
CC(=O)Nc1ccc(C(=O)NCC2CCCCC2)cc1,.,.,0.1,.,-0.5,
O=C(CCS(=O)(=O)c1ccccc1)Nc1ccccc1-c1nc2ccccc2s1,-25.9,-11.5,-0.4,4.0%,-0.8,
COc1cccc(/C=N/Nc2nccnc2Cl)c1O,.,-24.0,.,9.4%,.,
CCCn1c(CN(Cc2ccccc2)Cc2ccccc2)nc2c1c(=O)n(C)c(=O)n2C,-8.0,-21.7,2.9,12.4%,-7.5,Arbovirus inh repeat=-18.1
CCCCc1cc(=O)oc2cc(C)c(CN3CCCC3)c(O)c12,-18.2,16.3,-3.8,-7.9%,-2.2,
CCN1CCN(c2ccc(N3CCN(S(=O)(=O)c4ccc(C)c([N+](=O)[O-])c4)CC3)nn2)CC1,.,.,-3.5,.,2.3,
CC1Cc2ccccc2N1C(=O)c1ccc(N2CCCC2)c([N+](=O)[O-])c1 (centres undefined),-39.9,-5.5,11.5,4.5%,-6.4,
COc1ccc(CNC(=O)C2CCCN(S(=O)(=O)N3CCC(C)CC3)C2)c(OC)c1 (centres undefined),.,.,-1.2,.,-3.9,
O=C(NCCN1CCN(c2ccccc2)CC1)Nc1cccc(Br)c1,.,.,0.7,.,-9.1,
Cc1ccc2nc(NC(=O)CSc3nnc(C)c(=O)n3N)sc2c1,-20.5,0.7,-0.1,1.3%,-4.0,
COc1ccc(NC(=O)C2=CC(c3ccc(C)cc3)=NS(=O)(=O)N2C)cc1,.,.,2.2,.,0.9,
O=C(CSc1ccsc1[N+](=O)[O-])N1CCCCCC1,.,0.0,-1.8,2.6%,84.6,
Cc1ccc(NCC(=O)Nc2ccc(Br)cc2)cc1C,.,.,0.8,.,-3.9,
COc1ccc(C(CNS(=O)(=O)c2ccc(F)cc2)N2CCN(C)CC2)cc1 (centres undefined),.,.,0.6,.,-13.5,
COc1cccc(C2(O)CCN(C(=O)Cc3cccnc3)CC2)c1,-3.0,11.2,3.4,-15.6%,-15.5,
Nc1nnc(C2CCCC2)s1,-34.2,4.0,-1.7,-11.2%,-1.7,
CCOC(=O)c1c(-c2ccc(F)cc2)csc1NC(=O)CCN1CCOCC1,-21.1,12.8,6.7,7.8%,2.5,
COc1ccc(Br)cc1/C=C1\Oc2ccccc2NC1=O,.,.,-4.2,.,4.6,
O=C1CC(c2cccc(F)c2)SC(N(c2ccccc2)c2ccccc2)=N1 (centres undefined),-30.1,-1.3,-0.2,6.2%,-8.0,
N#CC1=C(N)Oc2c(c(=O)oc3ccccc23)C1c1cccnc1 (centres undefined),-5.3,15.6,3.0,-9.8%,-2.2,
CC(C)CNS(=O)(=O)c1cc2c3c(c1)CC(=O)N3CCC2,.,.,2.1,.,-6.7,
O=C(COC(=O)c1cccc(C(F)(F)F)c1)NCc1ccccc1,-27.5,5.6,0.4,3.8%,5.7,
O=C(CN1CCN(C(=O)c2ccco2)CC1)Nc1ccc2c(c1)OCCO2,-36.8,-3.3,0.6,3.6%,1.2,
CC(Nc1ccccc1)c1ccncc1 (centres undefined),.,2.4,1.0,6.2%,-1.2,

# The closing two records of the part before are carried over, then new ones follow.
SMILES,YopH inh,Arbovirus inh,RecA splice inh,Mtb growth,Mtb betalactam,others
O=C(CN1CCN(C(=O)c2ccco2)CC1)Nc1ccc2c(c1)OCCO2,-36.8,-3.3,0.6,3.6%,1.2,
CC(Nc1ccccc1)c1ccncc1 (centres undefined),.,2.4,1.0,6.2%,-1.2,
COc1ccc(NC(=O)CSc2ccc(-c3cccnc3)nn2)cc1,.,.,-1.9,.,38.8,
CC(C)NC(=O)c1ccc(C(C)C)cc1,.,.,-1.9,-8.9%,-1.3,
Cc1cccc(OCCCCc2c(C)n[nH]c2C)c1C,-40.0,-22.5,13.4,2.75µM*,99.8,
CCn1c(NCc2ccco2)nc2ccccc21,.,1.1,-0.3,-10.0%,-1.2,
CN(CC(=O)Nc1cccc(C(F)(F)F)c1)Cc1ccccc1,.,.,-1.7,.,3.7,
CSc1ncc(F)c(N(CCO)CCO)n1,-16.8,4.6,1.5,6.6%,-2.6,
Cc1cccc(NCc2ccc(Br)cc2)n1,.,.,1.9,.,4.2,
Cc1cc(=O)oc(C)c1C(=O)Nc1cccc2nonc12,-51.9,2.2,4.2,-11.3%,-3.3,
CCOC(=O)c1cnc(SCC(=O)Nc2ccc(NC(=O)CC)c(OC)c2)nc1N,-25.1,-8.9,-5.8,-8.1%,?,
CC(=O)c1cccc(N2C(=O)C3C4CCC(C4=C(C)C)C3C2=O)c1 (centres undefined),-24.9,2.5,0.8,4.5%,-7.6,
COc1c(C)cc(Br)cc1C(=O)NCc1cccnc1,4.2,-2.2,-2.4,-9.4%,-0.8,
COCCNC(=O)C(c1ccco1)N(C(=O)Cn1nnc2ccccc21)c1ccc(C)cc1C (centres undefined),1.4,4.0,4.2,0.8%,-5.8,
COC(=O)c1ccccc1NC(=O)NC1CCC(C)CC1 (centres undefined),.,-4.7,1.1,6.0%,1.2,
Cc1cccc(N(C)C(=O)CN2C(=O)COc3ccc(S(=O)(=O)N4CCCCCC4)cc32)c1,.,.,2.5,.,4.8,
CC1(C)CCCC2=C1CC1C(=O)N(N)C(=O)C1C2 (centres undefined),.,.,-2.4,2.0%,-3.5,
CCN(Cc1ccccc1)S(=O)(=O)c1cc(C(=O)NCCCN(C)C)ccc1OC,.,15.9,5.2,-2.1%,-7.7,
Cn1c(=O)c2[nH]c(N3CCN(c4ccccc4)CC3)nc2n(C)c1=O,.,-1.6,-1.0,-3.3%,2.7,
O=C(CCOc1ccccc1)Nc1ccccc1,-24.2,9.2,0.9,7.7%,-16.1,
COc1ccc(/C=C2\SC(N)=NC2=O)cc1Cl,.,.,5.5,.,2.0,
CC1CCC(NC(=O)C2(C)CCC(=O)N2Cc2cccnc2)CC1 (centres undefined),-22.4,3.2,0.1,3.8%,-1.2,Arbovirus inh repeat=2.1
O=C(Nc1ccc(Cl)cc1F)C1CCN(S(=O)(=O)c2cccc3nonc23)CC1,.,.,-2.1,.,2.3,
C=CCn1c(SCC(=O)Nc2cc(C)cc(C)c2)nnc1-c1cnccn1,-25.7,0.3,-2.7,-0.7%,0.0,
CC1CCCCN1C(=O)COC(=O)CNC(=O)c1sc2ccccc2c1Cl (centres undefined),.,.,-0.8,.,2.4,
CC(NCC(O)COCCC12CC3CC(CC(C3)C1)C2)c1ccccc1 (centres undefined),.,-28.6,5.6,?,99.8,
CC1CCCN(C(=O)CSc2nnc(-c3ccco3)n2C)C1 (centres undefined),.,.,2.1,.,-2.5,
CC(=O)N(CCC(Cc1ccccc1)c1ccco1)Cc1ccco1 (centres undefined),.,.,9.7,0.2%,-4.3,
COc1ccc(CCNC(=O)C2CCN(S(=O)(=O)N3CCCCC3)CC2)cc1OC,-25.7,3.9,0.8,.,-1.9,
CCCn1nc(Oc2nc(SC)nc(N(C)C)n2)ccc1=O,-42.2,8.8,1.2,0.7%,9.5,
O=C(N/N=C/C=C/c1ccccc1)c1cccs1,.,0.3,0.7,18.1%,88.7,
CCOc1ccc(/C=C/C(=O)CCC(=O)O)cc1,.,6.6,4.7,-5.6%,-1.7,
O=c1c2ccccc2nc(N2CCN(c3ccccc3)CC2)n1Cc1ccccc1,-29.7,14.9,7.4,16.9%,5.8,Arbovirus inh repeat=7.2
CCOCCn1c(SCc2ccccc2)nc2c1c(=O)[nH]c(=O)n2C,.,-1.6,1.9,4.9%,7.7,Arbovirus inh repeat=0.2
COc1cc(OC)c(NS(=O)(=O)c2cc(C(=O)OCC(=O)NCC3CCCO3)ccc2OC)cc1Cl (centres undefined),.,0.8,.,7.3%,2.2,
CC(C)CCn1cnc2c(c1=O)c1nc3ccccc3nc1n2Cc1ccc2c(c1)OCO2,-2.2,0.3,-0.2,4.1%,.,
Cc1ccc(/C=N/NC(=O)C2(C)CC2(Br)Br)cc1 (centres undefined),.,1.7,-37.4,3.8%,1.2,
Cc1ccc(NNc2c(C)nc3ccccc3nc2=O)cc1,.,-6.2,-5.5,50.2%,4.1,
Brc1ccc(-c2ncc(-c3ccccc3)cn2)cc1,-2.7,-0.1,-0.7,-2.8%,4.6,
CC1(C(=O)Nc2ccc3c(c2)OCCO3)CC1(Cl)Cl (centres undefined),.,.,0.4,.,-12.2,
COc1ccc(NS(=O)(=O)c2cccc3ccccc23)cc1,.,.,3.7,.,-7.4,

# An excerpt (hit frequency here may not be typical).
